# Assay outcomes: PubChem BioAssay, ICCB-Longwood Screening Facility, Harvard Medical School
# HCMV NEC inh: inhibitors of HCMV UL50-UL53 interaction, biochemical, HTRF; AID 1918969, 2023; 0.15% of 190,000 active; normalized percent inhibition; inhibition, % (test concentration not listed); HCMV UL50-UL53 nuclear egress complex (human cytomegalovirus);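 active means both replicates at 50% or more, plus weaker picks with an unusually low signal ratio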;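 further: stock transfer was 100 nL into about 20 µL; 0% = negative control wells and 100% = wells with untagged competitor protein; inactives centre near -12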
# Sa growth 42C: S. aureus growth inhibition at 42 and 30 °C, primary screen, LtaS inhibitor project, RN4220, two temperatures. relative growth, % (concentration not given with the values). AID 720641, 2013. OD600, 20 h, 42 °C; stronger effect = lower value. 0.53% of 170,000 active;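 active means growth at 42 °C up to 50% and 20 or more points under that at 30 °C, or under 10% at both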;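 further: 300 nL library stock went into each well; scaled to the means of positive and negative controls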
# GIV-Gai inh: inhibitors of GIV peptide binding to Galpha-i3, primary screen, biochemical, fluorescence polarization, FITC-GIV GBA peptide, rat Galphai3; percent of control (FP), % (no concentration beside the values); 0.42% of 210,000 active; 90 min; stronger effect = lower value; scaled: aluminum fluoride 0%, vehicle 100%;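 active means replicate mean at 85% of control or lower, very high polarization wells dropped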;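 further: wells of about 15 µL received 100 nL stock; the first replicate is given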
# Target sequence (P08753 whole entry, looked up): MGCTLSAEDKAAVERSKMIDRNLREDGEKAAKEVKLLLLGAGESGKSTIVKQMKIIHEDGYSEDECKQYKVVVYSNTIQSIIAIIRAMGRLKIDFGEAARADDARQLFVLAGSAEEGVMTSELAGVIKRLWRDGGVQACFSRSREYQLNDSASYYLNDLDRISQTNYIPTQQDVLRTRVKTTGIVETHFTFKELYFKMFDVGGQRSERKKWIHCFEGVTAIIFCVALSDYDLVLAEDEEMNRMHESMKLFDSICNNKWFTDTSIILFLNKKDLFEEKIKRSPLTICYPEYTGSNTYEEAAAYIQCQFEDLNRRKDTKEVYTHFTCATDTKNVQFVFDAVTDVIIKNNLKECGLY
# Sa growth 42C second temp: second read-out of Sa growth 42C, no call of its own (marks repeat the call); relative growth, %; measured here: growth at 30 °C;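 optical density after 20 h as mean of two plates; 100% = untreated growth and lower means inhibition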
# Starred values were filed as active, the others as inactive; . = no result given; & = joins results of further samples.
SMILES,HCMV NEC inh,Sa growth 42C,Sa growth 42C second temp,GIV-Gai inh
Clc1ccccc1-c1nnc2sc(-c3ccc4ccccc4n3)nn12,-25,.,.,115
S=C(NCc1ccccc1)NC(Cc1ccccc1)c1ccccc1 (stereo not given),-37,95,55,100
CCc1ccccc1NC(=O)c1cc(S(=O)(=O)N(CC)c2ccccc2)ccc1F,.,107,83,101
CCN(C(=O)CSc1ccc(Br)cc1)c1ccccc1,6,85,112,.
CCCCn1c(=O)c2oc3ccccc3c2n(CC(=O)Nc2cccc(OC)c2)c1=O,-19,89,90,103
COC(=O)c1ccccc1N=CNO,-14,90,87,102
CCc1ccc(OCCSc2nc(-c3cccc(C)c3)nc3cc(=O)[nH]n23)cc1,.,107,87,98
CCOc1cc(C2CC(=O)Nc3c2c(C)nn3-c2nc(C)cc(C)n2)ccc1O (stereo not given),-28,104,81,97
CCc1c(C)c2ccc(O)c(CN(C)C)c2oc1=O,-31,127,69,106
CCSCCOC(=O)C1=C(C)NC2=C(C(=O)CC(c3ccc(OC)cc3)C2)C1c1cc(Cl)c(O)c(OC)c1 (stereo not given),-19,.,.,104
CC(CNC(=O)Cn1c(-c2cccs2)cc2cc(Cl)ccc21)c1ccccc1 (stereo not given),.,116,85,100
CCc1nn(-c2ccccc2)c2nc(-c3ccccc3)nc(SCC(=O)NCc3cccc(OC)c3)c12,17,.,.,102
COc1ccccc1-n1cc(-c2ccccc2)c2c(SCC(C)C)ncnc21,.,131,90,107
O=C(c1cc(S(=O)(=O)N2CCCC2=O)c(Cl)cc1Cl)N1CCCCC1,-28,108,99,108
CCCCC(=O)OC1=CN(Cc2ccccc2)S(=O)(=O)c2ccccc21,8,98,86,103
CCOC(=O)N1CCN(C(=S)NC(=O)c2ccc(F)cc2)CC1,-11,100,79,.
Cc1cc(/C(O)=C2\C(=O)C(=O)N(CCCN(C)C)C2c2ccc(O)cc2)ccc1OCC(C)C (stereo not given),2,90,120,100
O=C(NCc1ccccc1Cl)c1ccc(Cn2cc(Cl)cn2)cc1,-10,2.9*,0.2*,105
CC(C)C(=O)NCCc1ccc(S(N)(=O)=O)cc1,4,98,95,.
CCCCC(=O)NCc1nc2cccnc2n1Cc1ccc(OC)cc1,.,101,90,105
CCOC(=O)c1ccccc1NC(=O)c1sc(NC(=O)COc2ccc(Cl)cc2C)c(C(=O)OCC)c1C,-7,.,.,106
Cc1ccc(NC(=O)Cn2c(=O)n(Cc3ccco3)c(=O)c3ccc(C(=O)NC4CCCC4)cc32)c(C)c1,-20,102,84,104
CCOc1ccc(NC2=NC(C)(C)N=C(N)N2)cc1,16,100,105,107
CC(=O)c1c(C)oc2ccc(N(C(=O)c3ccncc3)S(=O)(=O)c3ccc(F)cc3C)cc12,2,101,105,103
Cc1ccc(C)c(NC(=O)C2CCN(c3cc(C)nc4c(-c5ccc(Cl)cc5)c(C)nn34)CC2)c1,-18,104,87,104

# Later entries.
SMILES,HCMV NEC inh,Sa growth 42C,Sa growth 42C second temp,GIV-Gai inh
COc1ccccc1CC(=O)Nc1cccc(NC(C)=O)c1,-11,69,72,.
CC(=O)NS(=O)(=O)c1ccccc1,-5,106,86,.
O=C(Cn1cnc2onc(-c3ccc(Cl)cc3)c2c1=O)Nc1ccc(F)cc1F,1,.,.,105
CC(NC(=O)Nc1c[nH]c2ccccc2c1=O)c1ccncc1 (stereo not given),-50,113,79,106
COc1ccc(OC(=O)NCCc2ccccc2)cc1,-4,117,84,101
COc1ccc(CCNC(=O)NC2(C(F)(F)F)Oc3ccccc3O2)cc1OC,.,107,69,95
Cc1ccc(N2C(N)=C(C(N)=O)C(c3ccc(Cl)cc3)C3=C2CC(C)(C)CC3)cc1 (stereo not given),-6,110,89,.
CN(C)c1ccc(Cc2ccc(N(C)C)cc2)cc1,-32,91,92,105
CCc1cccc(NC(=O)c2cc(S(=O)(=O)N3CCCCCC3)cn2C)c1,.,87,88,101
O=C(Cn1nc(-c2ccccc2)oc1=O)OCC(=O)c1ccccc1,-16,88,95,.
COc1ccc(CNC(=O)CN2C(=O)CCc3ccccc32)cc1,18,106,100,105
CCOC(=O)c1c(NC(=O)C2Cc3ccc(C)cc3C(=O)O2)sc2c1CCC2 (stereo not given),-3,.,.,106
O=c1[nH]c2ccc(NS(=O)(=O)c3cnc[nH]3)cc2s1,-4,.,.,99
COC(=O)c1ccc(CSc2ccc3nnc(-c4ccc(Cl)cc4)n3n2)o1,.,96,86,97
COc1ccc(OC)c(S(=O)(=O)/N=C/N(C)C)c1,20,98,102,110
CCCc1cc(C(=O)O)n(C)n1,-16,117,85,98
Cc1ccc2nc(-c3ccc(C)c(NC(=O)Cc4ccccc4)c3)oc2c1,-41,95,85,108
CC1CCN(C(=O)Cn2nnc3ccccc3c2=O)CC1,-16,97,88,104
N#Cc1nccnc1Oc1cccc(C(F)(F)F)c1,-64,94,87,105
CS(=O)(=O)N1N=C(c2ccccc2O)CC1c1cn(-c2ccccc2)nc1-c1ccccc1 (stereo not given),-13,.,.,114
COc1ccc(C2CC(=O)C3=C(C2)OC(N)=C(C#N)C3c2ccc(Cl)cc2)cc1OC (stereo not given),-8,.,.,108
O=C(CC1CCN(C(=O)C2CCCCC2)CC1)NCCCN1CCc2ccccc2C1,-43,.,.,102
COc1cccc(-c2ccc3c(N)c(C(=O)Nc4cc(F)ccc4F)sc3n2)c1,.,108,74,99
N[C@@H](CS(=O)O)C(=O)O,12&-33,.,.,101
CCCNS(=O)(=O)c1ccc(NC(=O)C2CC(=O)N(c3ccc(OCC)cc3)C2)cc1 (stereo not given),-21,93,79,102

# Entries above with a CF3 group:
SMILES,HCMV NEC inh,Sa growth 42C,Sa growth 42C second temp,GIV-Gai inh
COc1ccc(CCNC(=O)NC2(C(F)(F)F)Oc3ccccc3O2)cc1OC,.,107,69,95
N#Cc1nccnc1Oc1cccc(C(F)(F)F)c1,-64,94,87,105

# Further structures
SMILES,HCMV NEC inh,Sa growth 42C,Sa growth 42C second temp,GIV-Gai inh
COC(=O)CN(c1nc2nc(C)cc(C)n2n1)S(=O)(=O)c1ccc(Cl)cc1,7,.,.,101
CN(Cc1ccccc1)c1ncnc2sccc12,-10,100,102,.
CC(C)(C)C(=O)NC(=S)N1CCc2ccccc21,-4,111,104,100
CCC(Cc1ccccc1)NC(=O)C1CCCN(c2nnc(-n3cccc3)s2)C1 (stereo not given),-3,88,63,102
CC1=C(C(=O)Nc2cccc(C(F)(F)F)c2)C(c2ccccn2)n2ncnc2N1 (stereo not given),.,108,93,97
Oc1cccc(N=Cc2sc(=S)n(C3CCCCC3)c2O)c1,-25,155,98,140
CCn1cc(C(=O)NCCC(C)C)c(=O)c2cc(S(=O)(=O)N3CCCCC3)ccc21,.,97,91,99
Cc1noc(C)c1S(=O)(=O)NCc1ccc2c(c1)OCO2,-3,101,93,.
CCCn1cnc2cc(NCc3ccco3)ccc21,-14,84,79,112
Nn1c(CSCc2ccccc2)nnc1CSCc1ccccc1,2,115,89,.
COc1ccc(S(=O)(=O)Nc2cccc(-c3ccc(N4CCCCCC4)nn3)c2)cc1OC,.,123,93,106
CSC(=S)N(c1ccccc1)c1ccccc1,-10,122,96,.
Cc1ccc(N/C=C(/C#N)c2ccsc2)cc1,-13,.,.,102
CCOC(=O)/C(=N\Nc1ccccc1C(F)(F)F)N1CCOCC1,5,84,96,.
Cc1cc(C)n(C(=O)CSc2nc(-c3ccccc3)cc(C(F)(F)F)c2C#N)n1,16,.,.,107
CCN(Cc1cc2cc3c(cc2[nH]c1=O)OCCO3)c1ccc2c(c1)OCCO2,-32,86,88,106
C/C(=N\NC(N)=S)C1=CC(C)(C)CCC1,-1,67,60,.
CCc1ccc2cc(-c3ccccc3)cn2c1,-45,97,80,.
COC(=O)c1ccc(NC(=O)c2c(-c3ccccc3)c(-c3ccccc3)nn(C)c2=O)cc1,-40,101,84,99
COC(=O)c1ccc(-n2ncnc2-c2cccc(Br)c2)cc1,-17,94,80,105
Cc1nn(-c2ccccc2)c2c1C(c1ccc(Cl)cc1)N1C(=N2)C(=O)Nc2ccccc21 (stereo not given),-31,101,95,.
O=C(O)CCCC[C@H]1SC[C@H]2NC(=O)N[C@H]21,-13,78,97,.
Cc1cc(NCCO)nc(N2CCOCC2)n1,-13,91,91,101
O=C1c2ccccc2C(=O)c2c1oc1c3c(ccc21)OCN(CCCN1CCOCC1)C3,-86,95,66,.
CCOc1ccccc1C1C(C(=O)Nc2ccccc2)=C(C)Nc2c(C(=O)Nc3ccc(F)cc3)cnn21 (stereo not given),-1&-2,87,86,104&100

# The results go on:
SMILES,HCMV NEC inh,Sa growth 42C,Sa growth 42C second temp,GIV-Gai inh
COc1ccc(C2C(C(=O)NCc3cccnc3)CCC(=O)N2c2cc(OC)c(OC)c(OC)c2)cc1 (stereo not given),-8,98,94,100
COC(CN=CC1=C(O)CC(C)(C)CC1=O)OC,-10,94,92,103
O=C(C1CCCO1)N1CCC(c2nc(-c3ccc(F)cc3)no2)CC1 (stereo not given),4,.,.,101
CCOC(=O)c1sc(NC(C)=O)c(C#N)c1C,-8,94,89,.
CCc1nn(-c2ccccc2)c2nc(-c3cccc(OC)c3)c3cc(OC)c(OC)cc3c12,-56,103,91,109
CCNC(=O)C1CCCN(c2ncnc3onc(C)c23)C1 (stereo not given),.,91,86,101
COc1cccc(NC(=O)c2oc3ccccc3c2NC(=O)c2ccc(C(F)(F)F)cc2)c1,7,103,92,104
O=C(CSc1nnc(-c2ccc(S(=O)(=O)N3CCOCC3)cc2)o1)c1c[nH]c2ccccc12,-8,103,108,105
CNS(=O)(=O)c1cccc(C(=O)NCCCN2CCCC2=O)c1,-21,94,97,.
COc1ccc(CN2C(=O)C(NC(=O)c3ccccc3OC)(C(F)(F)F)N=C2c2ccccc2)cc1 (stereo not given),-13,100,85,104
CCc1ccc(NC(=O)CN2CCN(Cc3cc(C)ccc3C)S2(=O)=O)cc1,3,.,.,95
O=S(=O)(c1ccc(Nc2ccc(F)cc2)nc1)N1CCCC1,-6,113,94,.
CCOC(=O)N1CCN(C(=O)CSc2nnc(C3COc4ccccc4O3)o2)CC1 (stereo not given),-1,95,85,98
O=C(Cc1n[nH]c(=O)c2ccccc12)OCc1ccc(F)cc1,-23,105,83,.
Cc1oc(-c2cccc(Br)c2)nc1CSc1nc2ncccc2[nH]1,.,107,97,98
CCOC(=O)c1c(NC(=O)CCCc2nc(-c3cccnc3)no2)sc2c1CCCC2,-10,.,.,108
Cn1nnnc1SCC(=O)N=C1NC(=O)CS1,-24,87,81,101
CCc1c(C)[nH]c2ccccc2c1=O,-7,93,84,.
CCOC(=O)c1ccc(N2C(=O)c3[nH]nc(-c4ccc(C)cc4)c3C2c2ccc(O)cc2)cc1 (stereo not given),-25,102,89,106
O=C(Nc1ccc2c(c1)OCO2)c1cc(-c2ccccc2)oc1C(F)(F)F,-19,101,94,106
CN(C)CCN1C(=O)C(=O)/C(=C(/O)c2ccc(S(=O)(=O)N(C)C)cc2)C1c1ccccc1 (stereo not given),-18,83,108,101
Cc1ccc2cc(C#N)c(NCCNC(=O)Nc3ccccc3C)nc2c1,-2,100,81,97

# Structures from the list above with fluorine (17):
SMILES,HCMV NEC inh,Sa growth 42C,Sa growth 42C second temp,GIV-Gai inh
CCc1ccccc1NC(=O)c1cc(S(=O)(=O)N(CC)c2ccccc2)ccc1F,.,107,83,101
CCOC(=O)N1CCN(C(=S)NC(=O)c2ccc(F)cc2)CC1,-11,100,79,.
CC(=O)c1c(C)oc2ccc(N(C(=O)c3ccncc3)S(=O)(=O)c3ccc(F)cc3C)cc12,2,101,105,103
O=C(Cn1cnc2onc(-c3ccc(Cl)cc3)c2c1=O)Nc1ccc(F)cc1F,1,.,.,105
COc1ccc(CCNC(=O)NC2(C(F)(F)F)Oc3ccccc3O2)cc1OC,.,107,69,95
N#Cc1nccnc1Oc1cccc(C(F)(F)F)c1,-64,94,87,105
COc1cccc(-c2ccc3c(N)c(C(=O)Nc4cc(F)ccc4F)sc3n2)c1,.,108,74,99
CC1=C(C(=O)Nc2cccc(C(F)(F)F)c2)C(c2ccccn2)n2ncnc2N1 (stereo not given),.,108,93,97
CCOC(=O)/C(=N\Nc1ccccc1C(F)(F)F)N1CCOCC1,5,84,96,.
Cc1cc(C)n(C(=O)CSc2nc(-c3ccccc3)cc(C(F)(F)F)c2C#N)n1,16,.,.,107
CCOc1ccccc1C1C(C(=O)Nc2ccccc2)=C(C)Nc2c(C(=O)Nc3ccc(F)cc3)cnn21 (stereo not given),-1&-2,87,86,104&100
O=C(C1CCCO1)N1CCC(c2nc(-c3ccc(F)cc3)no2)CC1 (stereo not given),4,.,.,101
COc1cccc(NC(=O)c2oc3ccccc3c2NC(=O)c2ccc(C(F)(F)F)cc2)c1,7,103,92,104
COc1ccc(CN2C(=O)C(NC(=O)c3ccccc3OC)(C(F)(F)F)N=C2c2ccccc2)cc1 (stereo not given),-13,100,85,104
O=S(=O)(c1ccc(Nc2ccc(F)cc2)nc1)N1CCCC1,-6,113,94,.
O=C(Cc1n[nH]c(=O)c2ccccc12)OCc1ccc(F)cc1,-23,105,83,.
O=C(Nc1ccc2c(c1)OCO2)c1cc(-c2ccccc2)oc1C(F)(F)F,-19,101,94,106
